# Screens (PubChem BioAssay)
# Choline anaer gr – inhibitors of anaerobic choline-dependent gram-negative bacterial growth; calls only; actives 0.2% (n = 55,000); Gram-negative bacterium anaerobic choline minimal medium, absorbance growth; active compounds read low; many inactives read as strong as hits in the columns shown;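 active means growth z-score on choline under -2 at 7 or 20 h with little or no fall on glycerol, limits in tiers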;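 further: stock transfer was 300 nL into about 50 µL; the organism is E. coli; final concentration not given here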
# Choline anaer gr early – further read-out of Choline anaer gr, marked with its call; z-score; measured here: choline growth z-score, timepoint 1;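 score of optical density at 7 h as mean of two plates; lower means less growth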
# An asterisk follows results filed as active; i = inactive; & = joins results of further samples. This is a subset, so the mix of outcomes need not match the whole.
Choline anaer gr early	Choline anaer gr	canonical_smiles
0.36	i	CC1CCN(C(=O)c2cc3c(s2)CCC(C(=O)N2CCC(C)CC2)C3)CC1 (stereo unspecified)
0.61	i	CC1CCN(C(=O)Cn2cc(SCC(=O)Nc3ccccc3)c3ccccc32)CC1
-0.02	i	COc1ccc(NC(=O)CSc2ncnc3nc(N4CCSCC4)sc23)cc1
-1.6	i	Cn1nc(-c2nc(-c3ccccc3)no2)c2c1CCN(C(=O)Cc1ccc(F)cc1)C2
-2.4	i	Fc1ccc(C2NCCc3c2[nH]c2ccccc32)cc1F (stereo unspecified)
-1.2	i	CC1=C(c2ccc(F)cc2)S(=O)(=O)N(CC(=O)NCc2cccc(Br)c2)C1=O
-0.78	i	COc1ccc(OCC(=O)N2CCc3c(c(C(=O)N4CCCC(C(=O)NC5CC5)C4)nn3C)C2)cc1 (stereo unspecified)
-0.75	i	O=C(O)c1ccccc1-c1c2cc(I)c(=O)c(I)c-2oc2c(I)c(O)c(I)cc12
-0.97	i	CCS(=O)(=O)Nc1cnc(N(CC(C)C)CC(C)C)c(C(=O)O)c1
0.51	i	CCC(CC)C(=O)N1CCN(C(=O)c2cc3cc(OC)ccc3[nH]2)CC1
-0.95	i	CS(=O)(=O)N1CCC(n2cnc3ccc(Cl)cc3c2=O)CC1
0.31	i	COc1ccc(NC(=O)C2CCCN(S(=O)(=O)c3cc(-c4noc(C)n4)sc3C)C2)cc1OC (stereo unspecified)
0.45&-2.8	i	CCOC(=O)[C@H](CCc1ccccc1)N[C@@H](C)C(=O)N1CCC[C@H]1C(=O)O
0.51	i	Cc1ccc(-c2noc(C3CC3)n2)cc1S(=O)(=O)N1CCC(C(=O)Nc2nccs2)CC1
0.5	i	CCc1ccc(NS(=O)(=O)c2c(C)sc(C)c2-c2n[nH]c(C)c2C)cc1
-0.14	i	Cc1ccc(C(=O)N(Cc2nc3nc(C)cc(C)n3n2)c2ccc(C)cc2)cc1
-0.19	i	Cc1nn(-c2ccc(F)cc2)c2c1c(=O)c(C(=O)NC1CC1)cn2C
-0.44	i	CCc1noc(-c2ccc(NC(=O)C3CC(=O)N(c4ccc(C)cc4)C3)cc2)n1 (stereo unspecified)
0.18	i	CCOC(=O)c1cc(S(=O)(=O)NC2CC2)c(C)n1C
0.4	i	CCCCCCCCCCCC(CC1OC(=O)C1CCCCCC)OC(=O)C(CC(C)C)NC=O (stereo unspecified)
-0.26	i	CNS(=O)(=O)c1c[nH]c(=O)[nH]c1=O
0	i	CN(CCc1noc(C2CCCCC2)n1)C(=O)c1cccc(N(C)C)c1
-0.87	i	Cc1[nH]c(C)c(S(=O)(=O)N2CCC(C(=O)Nc3ccccc3F)CC2)c1C(=O)N1CCCC1
0.21	i	CCOC(=O)c1cc(-c2ccncc2)nc2ccccc12
0.33	i	O=c1n(Cc2ccccc2F)nc2c(S(=O)(=O)N3CCN(c4ccc(F)cc4)CC3)cccn12
1.1	i	O=C(CCc1nc2sc3c(c2c(=O)[nH]1)CCCCC3)N1CCN(c2ccc(F)cc2)CC1
-1.9	i	O=C(CCc1nc(CSc2nc3ccccc3[nH]2)no1)Nc1nncs1
0.47	i	CCOC(=O)c1ccc(NC(=O)C2=Cc3ccc(C)cc3OC=C2)cc1
-0.25	i	CC1CCN(S(=O)(=O)c2ccc3c(c2)C(C)(C)CN3CC(=O)N2CCCC2)CC1
0.77	i	CCCCN1CC(=O)N(c2ccc(Br)cc2)[C@@H]2CS(=O)(=O)C[C@@H]21
0.1	i	O=C(CC1CCN(S(=O)(=O)c2ccccc2)CC1)NCc1cccnc1
-0.09	i	COc1ccc(-c2[nH]ncc2CN2CCCC2c2c(C)noc2C)cc1 (stereo unspecified)
-0.44	i	O=S(=O)(Nc1ccc(-c2ccc(N3CCCCC3)nn2)cc1)c1ccc(Br)cc1
-0.03	i	CCOC(=O)c1c(C)c(S(=O)(=O)N2CCCC2)c(C)n1C
-1.3	i	CCOC(=O)c1c(C)[nH]c(C)c1S(=O)(=O)NCC(=O)Nc1ccc(C)c(N(C)C)c1
-1.1	i	CCCCN(c1nc2nc(C)cc(C)n2n1)S(=O)(=O)c1ccc(C)cc1
-0.31	i	CC1CCCCC12NCCN=C2NCc1cccc(F)c1 (stereo unspecified)
-0.29	i	Cc1ccc(CN2CCN(C3CCN(C(=O)NC(C)C)CC3)C(=O)C2=O)cc1
-1.7	i	COC(=O)c1cc(S(=O)(=O)N2CCCC2C(=O)Nc2nc(C)cs2)cn1C (stereo unspecified)
0.87	i	CCOC(=O)c1[nH]c(C)c(CN(Cc2ccc(C)cc2)S(=O)(=O)c2ccc(CC)cc2)c1C
-0.44	i	CCCNS(=O)(=O)c1ccc(OC)c(-c2nc(C)no2)c1
-1.6	i	Cc1ccc(-c2noc(C(=O)N3CCCC3)n2)cc1S(=O)(=O)N1CCN(c2ccccn2)CC1
-0.77	i	O=S(=O)(c1ccc(-c2nnc(C3CCC3)o2)o1)N1CCCC1
-0.48	i	Clc1ccc(-c2noc3ncnc(NC4CC4)c23)cc1
0.14	i	C=CCN1CC(c2nc3ccccc3n2CC(O)COc2ccc(C)cc2C)CC1=O (stereo unspecified)
0.24	i	CC1CCN(C(=O)CCS(=O)(=O)c2ccc3c(c2)NC(=O)CCS3)CC1
-0.44	i	CC(C)NS(=O)(=O)c1cc(-c2noc(C3CCC3)n2)cs1
-1.3	i	CO[C@H]1/C=C/O[C@@]2(C)Oc3c(C)c(O)c4c(O)c(c(/C=N/N5CCN(C6CCCC6)CC5)c(O)c4c3C2=O)NC(=O)/C(C)=C\C=C\[C@H](C)[C@H](O)[C@@H](C)[C@@H](O)[C@@H](C)[C@H](OC(C)=O)[C@@H]1C
-1.6	i	COc1ccc(-c2nc(OCC(=O)Nc3ccccc3)c3c4c(sc3n2)CCCC4)cc1
0.1	i	CCc1ccc(S(=O)(=O)Nc2ccc3c(c2)CCC(=O)N3CC)cc1
-0.16	i	Cc1ccc(S(=O)(=O)NC2CCN(C(=O)CN3C(=O)COc4ccc(Cl)cc43)CC2)cc1
0.41	i	CCN(CC)S(=O)(=O)N1CCC(C(=O)Nc2ccc3sc(NC(=O)C(C)C)nc3c2)CC1
0.56	i	CCC1(C)OC(=O)N(C)C1=O (stereo unspecified)
0.48&-0.03	i	Nc1ccc2c3c(cccc13)C(=O)NC2=O
-0.01	i	Cc1ccc(N(CC(=O)NC(C)(C)C)S(=O)(=O)c2c(C)nn(C)c2C)cc1
0.44	i	CN(C)S(=O)(=O)c1ccc2c(c1)cc(C(=O)NCc1ccccn1)n2Cc1ccccc1

# Next part.
Choline anaer gr early	Choline anaer gr	canonical_smiles
0.74	i	COc1ccc(CNC(=O)Cn2c(=O)oc3cc(S(=O)(=O)N4CCC(C)CC4)ccc32)cc1
-4.4	i	COc1ccc(CNCc2ccc3nccnc3c2)c(OC)c1
1.5	i	O=C(NCc1ccccc1Cl)c1cnc2sc(N3CCCCC3)nn2c1=O
0.06	i	CCCn1cnc2nc(CSc3ccccc3NC(=O)COc3ccccc3)cc(=O)n21
1.6	i	CN1C(C(=O)c2ccccc2)=C(OC(=O)c2ccc(F)cc2)c2ccccc2S1(=O)=O
0.9	i	O=C(CN1c2ccc(F)cc2-c2ccccc2S1(=O)=O)N1CCc2ccccc2C1
0.08	i	Cc1ccc(COc2nc3ccccc3n3c(C)nnc23)cc1
1.4	i	CC(C)c1ccc(C(CNC(=O)c2cc(=O)c3cc(Br)ccc3o2)N2CCOCC2)cc1 (stereo unspecified)
0.78&1.1	i	Oc1cc2c(cc1O)C(c1ccccc1)CNCC2 (stereo unspecified)
-0.73	i	COc1ccc(Br)cc1CNC(=O)c1cccn1-c1cccnc1
0.38	i	Cc1ccc(-c2csc(-n3[nH]c(C)c(CC(=O)N(C)C)c3=O)n2)cc1
0.13	i	O=C(NCCN1CCN(Cc2ccccc2)CC1)C1CCN(c2nc3ccccc3[nH]2)CC1
1.4	i	COc1ccccc1N1CCN(C(=O)c2c(-c3ccc(C)cc3)nnc3ccccc23)CC1
0.75	i	CCc1onc(C)c1C1CCCN1S(=O)(=O)CC (stereo unspecified)
-0.96	i	CN1CCN(C(=O)c2cn(-c3cc(N4CCSCC4)ncn3)cn2)CC1
-0.89	i	CCC(=O)Nc1c(C)nc(Nc2ccc(OC)cc2)nc1Nc1ccc(OC)cc1

# No new results follow: 13 of the compounds above.
Choline anaer gr early	Choline anaer gr	canonical_smiles
0.74	i	COc1ccc(CNC(=O)Cn2c(=O)oc3cc(S(=O)(=O)N4CCC(C)CC4)ccc32)cc1
-4.4	i	COc1ccc(CNCc2ccc3nccnc3c2)c(OC)c1
1.5	i	O=C(NCc1ccccc1Cl)c1cnc2sc(N3CCCCC3)nn2c1=O
0.06	i	CCCn1cnc2nc(CSc3ccccc3NC(=O)COc3ccccc3)cc(=O)n21
1.6	i	CN1C(C(=O)c2ccccc2)=C(OC(=O)c2ccc(F)cc2)c2ccccc2S1(=O)=O
0.9	i	O=C(CN1c2ccc(F)cc2-c2ccccc2S1(=O)=O)N1CCc2ccccc2C1
0.08	i	Cc1ccc(COc2nc3ccccc3n3c(C)nnc23)cc1
1.4	i	CC(C)c1ccc(C(CNC(=O)c2cc(=O)c3cc(Br)ccc3o2)N2CCOCC2)cc1 (stereo unspecified)
0.78&1.1	i	Oc1cc2c(cc1O)C(c1ccccc1)CNCC2 (stereo unspecified)
-0.73	i	COc1ccc(Br)cc1CNC(=O)c1cccn1-c1cccnc1
0.38	i	Cc1ccc(-c2csc(-n3[nH]c(C)c(CC(=O)N(C)C)c3=O)n2)cc1
0.13	i	O=C(NCCN1CCN(Cc2ccccc2)CC1)C1CCN(c2nc3ccccc3[nH]2)CC1
1.4	i	COc1ccccc1N1CCN(C(=O)c2c(-c3ccc(C)cc3)nnc3ccccc23)CC1

# (next part)
Choline anaer gr early	Choline anaer gr	canonical_smiles
0.01	i	CCOC(=O)c1ccc(NC(=O)c2c(C)oc3ccc(OCC)cc23)cc1
0.32	i	O=C1N(Cc2cccc(F)c2)c2ccccc2S(=O)(=O)N1c1ccc(Cl)cc1
-0.95	i	O=C(c1cc(-c2cccnc2)n[nH]1)N1CCCC(C(=O)N2CCN(c3cccc(Cl)c3)CC2)C1 (stereo unspecified)
0.12	i	CCOC(=O)C1CCCN(c2ncc(S(=O)(=O)c3ccc(C)cc3)c(N)n2)C1 (stereo unspecified)
0.73	i	Cc1nn(-c2cc(N(C)C)ncn2)c(C)c1CCC(=O)NCC1CCCO1 (stereo unspecified)
0.97	i	CC(C)CNC(=O)NCc1c(-n2cccc2)sc2c1CCN(C)C2
0.61	i	Fc1ccc(OCc2nnc3sc(-c4ccncc4)nn23)cc1
0.11	i	CCN(CC)c1ncc(C(=O)O)cc1NS(=O)(=O)c1ccc(F)c(F)c1
0.1	i	CC1(C)C(=O)N(CC(=O)N2CC=C(c3ccccc3)CC2)c2ccccc21
0.12	i	CCCn1c(=O)c(N2CCC(NC(=O)Nc3ccccc3)CC2)nc2ccccc21
-1.2	i	CCC(CO)NCc1ccc(-c2ccc(Br)cc2)o1 (stereo unspecified)
1.5	i	O=S(=O)(Nc1ccccc1-c1ccc2ccccc2n1)c1ccc(F)cc1
0.38	i	O=C(c1cccc(CN2C(=O)C3CCCN3C(=O)c3ccccc32)c1)N1CCCC1 (stereo unspecified)
0.12	i	COc1ccc(OC)c(Nc2cc(C(=O)NC(C)c3ccc4c(c3)OCCO4)c3ccccc3n2)c1 (stereo unspecified)
2.5	i	c1ccc(-c2nc(-c3ccc(-c4csc(C5CC5)n4)cc3)no2)cc1
-0.07	i	CCOc1ccccc1O[C@@H](c1ccccc1)[C@H]1CNCCO1
0.6	i	Cc1sc(-c2cc(C(F)(F)F)on2)cc1S(=O)(=O)Nc1cccc(Cl)c1
-0.55	i	Cc1nc2ccccc2c(=O)n1-c1ccc(NC(=O)C(C)(C)C)cc1
-0.63	i	COCCNCc1ccc(-c2ccc(Br)cc2)o1
0.15	i	CCC1(C)CC(=O)c2c(ccc3oc(C(=O)NCc4ccccc4)c(C)c23)O1 (stereo unspecified)
0.38	i	O=C(CSc1nnc(-c2ccncc2)o1)N1CCCCC1
-0.56	i	O=C(c1c(F)cccc1F)N1CC(OCc2ccc(F)cc2)C1
1.1	i	COc1ccc(-c2cc(C(=O)N3CCN(S(=O)(=O)c4ccc(C)cc4C)CC3)[nH]n2)cc1
-0.32	i	Cn1c(CN2CCN(C(=O)NC3CCCC3)CC2)nc2cc(C(=O)N3CCCC3)ccc21
0.7	i	COc1ccc(-n2c(C)cc(C(=O)CN3CCCCC3)c2C)cc1
0.29	i	O=c1[nH]c(=O)n([C@H]2C[C@H](O)[C@@H](CO)O2)cc1C(F)(F)F
0.56	i	CCCCOC(=O)COc1cc(O)c2c(=O)cc(-c3ccccc3)oc2c1
-1.1	i	CN1CC(=O)N(CC(=O)NC2CCCCC2)c2ccccc2C1=O
-1.6	i	O=C(NC1CCCCC1)C1CCN(S(=O)(=O)c2cccc3cccnc23)CC1
2.1	i	Cc1ccc(-c2cc(OCC(=O)N3CCOc4ccc(C)cc43)c3ccccc3n2)cc1
1.2	i	CCOC(=O)N1CCC(NC(=O)c2cc3c(s2)CN(C2CC2)C3)CC1
0.79	i	COc1cc(NC(=O)N2CCN(Cc3cc(=O)n4nc(-c5ccc(F)cc5)sc4n3)CC2)cc(OC)c1
0.43	i	Cc1cc(-n2nnc(C(=O)OCc3ccccc3)c2C)ccc1Br
-0.44	i	O=C1CCCc2[nH]c(=O)c(C(=O)Nc3cccc(Br)c3)cc21
1.2	i	COc1ccc(-n2nc(C(=O)Nc3cc(OC)ccc3OC)c(=O)n(C)c2=O)cc1
0.78	i	CCc1ccc(COC(=O)c2nnn(-c3ccc(C)cc3)c2C)cc1
0.42	i	COC(=O)c1c(-c2ccc(Cl)cc2)noc1N1CCN(Cc2ccc3c(c2)OCO3)CC1
-0.03	i	Cc1cc(C(=O)O)c2cc(F)ccc2n1
0.19	i	CCOC(=O)c1nc2cc(C)c(C)cc2nc1NC1CCCCC1
-1	i	O=C(CCCN1C(=O)c2cccnc2Oc2ccccc21)N1CCN(c2ccccn2)CC1
0.64	i	CC(C)NC(=O)C1CC(=O)N(C2CCCCC2)C1 (stereo unspecified)
